# Screening data as filed in PubChem.
# miR-21 FLuc = raises the signal of a miR-21 reporter | HeLa miR-21 FLuc reporter, luciferase, 48 h | Potency, µM (series often up to 38.3 µM), for inactives: at the highest dose reporter change, positive = more light | 340,000 tested, under 10 active | AID 2288; active = well fitted rising curve with a large enough effect; inconclusive = small, poorly fitted or top-dose-only effect; inactive = no such curve, though single readings can be large or run the other way;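 also: % of control where 0% means no effect; miR-21 action dims this reporter so a rising signal means less miR-21 action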
#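 HeLa miR-21-FLuc reporter line, endogenous miR-21; 2000 cells/well in DMEM/10% FBS; compound titration up to ~40uM final, 48 h, 37 degree Celsius; luciferase detection reagent, 15 min lysis, CCD luminescence.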
# Rango-impB inh = inhibitors of Rango-importin beta complex formation; AID 540263; hit rate 0.031% among 340,000; Q14974; Potency, µM (series often up to 92.2 µM), inactives show at the highest dose inhibition of complex formation; Rango CFP/YFP FRET sensor + importin beta, 45 min; active = rising FRET ratio curve, often small or poorly fitted; inconclusive = mostly compound fluorescence or quenching in the first reads; inactive = flat curves in all reads;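 also: potency is read from the fitted curve at half-maximal effect; 0% = DMSO wells and 100% = buffer wells lacking importin beta; nearly all actives have a fitted effect of over 15% in size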
# Target sequence (Q14974 whole entry, looked up): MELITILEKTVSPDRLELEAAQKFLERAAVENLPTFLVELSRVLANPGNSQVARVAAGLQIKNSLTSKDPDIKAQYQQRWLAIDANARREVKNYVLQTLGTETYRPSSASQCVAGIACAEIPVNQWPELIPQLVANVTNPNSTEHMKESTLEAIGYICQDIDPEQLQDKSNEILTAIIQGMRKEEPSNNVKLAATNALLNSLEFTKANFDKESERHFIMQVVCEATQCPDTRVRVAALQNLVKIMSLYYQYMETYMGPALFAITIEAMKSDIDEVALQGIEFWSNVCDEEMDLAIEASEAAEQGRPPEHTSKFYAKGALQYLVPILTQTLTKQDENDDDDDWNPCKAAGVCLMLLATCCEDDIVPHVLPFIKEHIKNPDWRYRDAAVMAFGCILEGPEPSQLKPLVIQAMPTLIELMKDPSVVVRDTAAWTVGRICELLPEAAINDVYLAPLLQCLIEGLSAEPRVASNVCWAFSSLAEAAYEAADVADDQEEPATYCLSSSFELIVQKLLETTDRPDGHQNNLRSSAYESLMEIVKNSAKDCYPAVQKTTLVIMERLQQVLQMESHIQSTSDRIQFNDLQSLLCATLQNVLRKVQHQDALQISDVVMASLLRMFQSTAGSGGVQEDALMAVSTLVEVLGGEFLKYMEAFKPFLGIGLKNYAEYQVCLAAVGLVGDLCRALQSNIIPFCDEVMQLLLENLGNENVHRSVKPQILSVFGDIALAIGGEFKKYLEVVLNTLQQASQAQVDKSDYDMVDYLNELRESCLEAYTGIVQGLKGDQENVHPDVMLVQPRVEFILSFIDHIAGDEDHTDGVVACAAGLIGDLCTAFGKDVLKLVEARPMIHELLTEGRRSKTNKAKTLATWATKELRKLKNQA
#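 FRET biosensor (snurportin 1 IBB flanked by EYFP and cerulean), 50 nM, with compound 5 min, then 0.125 microM importin beta in PBS, 1 mM DTT, 0.02% Tween-20, 0.1% BSA. CFP/YFP ratio read after 45 min at room temperature; pre-read flags interference.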
# GLA inh pH 4.5 = inhibitors of human alpha-galactosidase A at pH 4.5 | AID 1467 | purified enzyme, 4-MU-alpha-Gal fluorescence, pH 4.5 | activity change, negative = inhibition, % at 105 µM | 230,000 tested, under 10 active | P06280; inconclusive = small, poorly fitted or top-dose-only inhibition, or a rising curve; inactive = flat fitted curve, though single readings scatter; no compound was filed as active;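 also: 0% = full activity with enzyme and -100% = basal without enzyme; dose as in the result columns while the protocol names 77 µM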
# Rango release inh = prevents RanGTP from dissociating the Rango-importin beta complex | O95149+P62826 | Biochemical FRET Rango-importin beta, RanGTP-induced dissociation | Potency, µM (doses to about 46.1 µM), for the others: at the top dose activity change, negative = inhibition | hit rate 0.071% among 340,000 | AID 540253; active means falling FRET ratio curve, often poorly fitted, with flat reads before Ran was added; inconclusive means other falling curves, or compound fluorescence or quenching; inactive means flat or rising ratio curve;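 also: potency is read from the fitted curve at half-maximal effect; % of control where 0% means no effect; nearly all actives have a fitted effect of over 45% in size; -100% = wells without RanGTP and RCC1; the record marks most hits as doubtful in a second field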
#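 FRET read at 45 min, room temperature: inhibitors block the CFP/YFP signal rise when RanGTP (0.6 uM Ran, 2 mM GTP, 0.2 uM RCC1) frees Rango (0.1 uM) from importin beta (0.25 uM). Pre-read after 5 min compound exposure flags interference.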
# Starred values were filed as active, the others as inactive; ? = inconclusive; · = not tested or not shown; & = joins results of further samples.
miR-21 FLuc,Rango-impB inh,GLA inh pH 4.5,canonical_smiles,Rango release inh
-3%,-4.2%,-10,O=C(Nc1sc2c(c1C(=O)c1ccccc1)CCCC2)c1cccnc1,48%
·,-2.9%,·,CC1CCC2(CC1)NC(=O)N(CC(=O)NCCc1c[nH]c3ccccc13)C2=O (centres undefined),1%
-11%,-0.9%,13,Cc1ccc(OCC(=O)Nc2ccc3c(c2)OC(F)(F)O3)c([N+](=O)[O-])n1,7%
·,0.8%,·,CCSc1nc2cc(S(=O)(=O)N3CCOCC3)ccc2o1,-1%
-30%,-4.9%,·,CC1CCC(NC(=O)C2CCN(c3c4c(nc5ncnn35)CCC4)CC2)CC1 (centres undefined),27%
-18%,?,·,Cc1nc(NC(=O)CCN2C(=O)C3CC=CCC3C2=O)sc1C (centres undefined),5%
-34%,?,-2,COC(=O)Nc1cccn(Cc2c(Cl)cccc2Cl)c1=O,16%
·,?,·,COc1ccc(Cl)cc1NC(=O)CN(C)C(=O)c1cc2c(s1)CCC(C)C2 (centres undefined),12%
-5%,-1.0%,-2,COc1ccc(N2CCN(C(=O)c3ccc(COc4ccc5c(C)cc(=O)oc5c4)cc3)CC2)cc1,-7%
3%,0.1%,-4,CCCc1c(C)[nH]c2ccc(C(=O)O)cc2c1=S,8%
-20%,-0.2%,·,CC(C)NC(=O)CSc1ncccc1-c1nc2ccccc2[nH]1,-14%
·,-6.2%,·,COc1ccc(OC)c(CC(=O)Nc2cc(S(=O)(=O)N3CCCCC3)ccc2C)c1,6%
-3%,0.4%,3,Cc1nnc(SCCCN2C(=O)c3ccccc3C2=O)o1,28%
·,-0.3%,·,CCOC(=O)C1=CN(Cc2ccco2)S(=O)(=O)N(C)C1CC (centres undefined),-1%
-41%,0.6%,-10,CCSc1nnc(NC(=O)c2cccnc2Cl)s1,4%
-37%,0.4%,-6,O=C(c1cc2ccccc2o1)c1nc2c(n1O)CCCCC2,2%
-3%,?,-12,COc1ccc(-c2c(C#N)c(N)nc3sc(C(=O)c4ccc(C)cc4)c(N)c23)cc1,?
-46%,0.0%,2,O=C(N/N=C/c1cccnc1)c1[nH]ncc1Br,-14%
-21%,1.1%,-12,Cc1ccc(C(=O)NNC(=S)NC(=O)COc2ccccc2)cc1,2%
-1%,0.3%,·,CCOc1ccc(/C=N/NC(=O)C2CCCC2)c(OCC)c1,15%
·,1.3%,·,CCCN(CC(=O)Nc1ccccc1C)C(=O)c1ccc(-c2ccc(C(C)=O)cc2)o1,0%
-12%,-4.0%,2,COc1ccc(/C=N/N(Cc2ccccc2)c2ccccc2)cc1O,-13%
-10%,1.1%,·,Cc1cc(C)c(NC(=O)CN2CCN(c3ccccn3)CC2)c(C)c1,-8%
-6%,-2.3%,-1,CC1CCC2(CC1)C(Nc1cccc(Cl)c1)=NC(=S)N2CC#N (centres undefined),1%
-8%,-2.6%,-7,CSC1=NCCN1C(=O)Cc1cccs1,22%
0%,?,·,Cc1ccc(C(=O)N/C(=C\c2cn(C)c3ccccc23)C(=O)NCCN2CCOCC2)cc1,?
-5%,-1.6%,·,COC(=O)CC(NC(=O)Nc1ccccc1F)c1ccc2c(c1)OCO2 (centres undefined),1%
-2%,-0.5%,-8,COc1ccc(Cc2nnc(N)s2)cc1,0%
·,-1.2%,·,CCOC(=O)C1CCN(C(=O)COC(=O)c2cc(-c3cccs3)nn2-c2ccccc2)CC1,-2%
-27%,-1.0%,-2,O=C(CN1C(=O)CSc2ccccc21)Nc1ccc2c(c1)OCCO2,-4%
-2%,1.3%,-5,O=C(OCCOc1ccc(Br)cc1)c1cnccn1,3%
-55%,-0.7%,6,CCc1ccc(NC(=S)NC(=O)CC(C)C)cc1,29%
12%,-0.6%,-2,COCCNC(=O)CN(Cc1cccs1)C(=O)CCC(=O)Nc1nccs1,-3%
-9%,0.4%,-6,CCOc1cccc(/C(O)=C2/C(=O)C(=O)N(Cc3cccnc3)C2c2ccco2)c1 (centres undefined),11%
·,-0.6%,·,NC(=O)N(N)c1nc(N2CCCC2)nc(N2CCCC2)n1,4%
-5%&4%,-0.3%,·,CCn1cc(C(=O)NCCCN(CC(C)C)CC(C)C)c(=O)c2cc(S(=O)(=O)N(C)C3CCCCC3)ccc21,-6%
-9%,?,-2,COc1ccc(C2=CC(c3ccc(OC)c(OC)c3)NC(=S)N2)cc1 (centres undefined),?
-2%,?,4,COc1ccc(CNC(=O)c2cnn3c(C(F)F)cc(C)nc23)cc1OC,-4%
-7%,?,2,CCOC(=O)C1=C(C)OC(N)=C(C#N)C1c1cncc(-c2ccc(F)cc2)c1 (centres undefined),-3%
·,0.7%,·,COC(=O)C1N[C@@H]([C@@H](NC(=O)COc2ccccc2)C(=O)NCc2ccc(OC)cc2)SC1(C)C (some centres undefined),8%
-1%,-1.4%,-1,COc1cccc(/C=N/n2nnnc2N)c1OCc1ccccc1Cl,?
·,5.1%,·,COc1ccc(CCNCc2ccc(-c3ccccc3)cc2)cc1OC,1%
-2%,-0.6%,-1,O=C(CCc1ccccc1)NCCSCc1c(F)cccc1Cl,5%
-11%,1.8%,10,Cc1c(C(=O)N2CCOCC2)sc2ncn(CC(=O)N3CCC(C)CC3)c(=O)c12,-4%
·,0.7%,·,Cn1ccnc1-c1nnn(-c2ccc(F)cc2)n1,-20%
-2%,0.7%,3,O=C(N/N=C/c1ccc2nccnc2c1)c1ccc(Br)cc1,31%
-1%,4.5%,10,COc1ccc(C(=O)NNC(=O)Cn2nnc(-c3ccc(OC)c(OC)c3)n2)cc1,11%
-14%,-3.9%,-3,CC1(C)Cc2nc3oc4c(=O)n(CC(=O)Nc5ccccc5)cnc4c3cc2CO1,-13%
1%,-1.4%,1,COC(=O)c1cn(NC(=O)CCC2CCCC2)c(=O)c2ccccc12,16%
4%,-2.0%,-2,COc1ccc(CCNC(=O)Cn2cc(C(F)(F)F)cc(Cl)c2=O)cc1OC,0%
-6%,-2.8%,-2,COC(=O)CC1C(=O)NCCN1C(=S)NC(=O)c1ccccc1[N+](=O)[O-] (centres undefined),-17%
·,0.1%,·,Nc1ncnc2c1ncn2-c1ccccc1Cl,4%
·,4.0%,·,CCCn1c(SCC(=O)Nc2ccc(F)c(Cl)c2)nc(O)cc1=O,13%
2%,0.6%,·,CCN1CCN(CCCNC(=O)c2ccc3c(=O)n(CCc4ccccc4)c(=O)[nH]c3c2)CC1,-10%
0%,-0.5%,-9,CC(C)N(C(=O)COC(=O)c1cncc(Br)c1)C(C)C,9%
-10%,3.9%,2,O=C(NN1C(=O)c2ccccc2NC1c1ccco1)c1ccc([N+](=O)[O-])cc1 (centres undefined),1%

# (more compounds)
miR-21 FLuc,Rango-impB inh,GLA inh pH 4.5,canonical_smiles,Rango release inh
-3%,·,-1,C[C@@H](c1ncncc1F)[C@](O)(Cn1cncn1)c1ccc(F)cc1F,·
1%,0.5%,-2,COc1cc(C(=O)NCc2nnc(SCC(=O)Nc3cccc(C)c3)o2)cc(OC)c1OC,-3%
·,-2.2%,·,CCC(C)[C@@H](CN)NCC1(c2ccccc2)CC1 (some centres undefined),-2%
5%,-0.7%,·,O=C(O)c1nn(CC(=O)N2CCN(c3ccccc3)CC2)c(=O)c2ccccc12,5%
-4%,-0.1%,-4,Cc1ccc(C)c(-c2nn(-c3cc(N4CCN(CCO)CC4)ccc3[N+](=O)[O-])c(=O)c3ccccc23)c1,0%
-1%,-1.0%,-5,O=C(c1ccco1)N1CCN(Cc2cn[nH]c2-c2ccc(F)cc2F)CC1,11%
-2%,5.1%,-7,O=C(NCc1ccccn1)C1CC(c2ccc(F)cc2)=NO1 (centres undefined),38%
26%,-2.8%,-5&-12,c1ccc(C2[C@H]3CN(Cc4cccnc4)[C@H](c4ccccc4)C34CC2(c2cccnc2)C4)cc1 (some centres undefined),10%
-6%,-1.2%,·,O=C(CN1CCN(c2ccc(F)cc2)CC1)Nc1nccs1,19%
1%,?,2,Cc1c(Cc2ccccc2)c(=O)oc2c(C)c(OCC(=O)Nc3ccc(C#N)cc3)ccc12,-4%
9%,0.2%,-2,CCOc1ccccc1C(=O)NC(C)c1ccc2c(c1)OCO2 (centres undefined),-1%
-9%,2.9%,0,CSc1cccc(NC(=O)C2CCN(S(C)(=O)=O)CC2)c1,0%
·,3.7%,·,CC(C)C(=O)Nc1ccc(COc2ccccc2CN(Cc2ccccc2)C(=O)OC(C)(C)C)cc1,3%
·,2.7%,·,COc1ccc2oc(C(=O)OCC(=O)Nc3ccc(N4CCOCC4)cc3)c(C)c2c1,0%
-19%,?,-10,CCN(Cc1cc(=O)n2ccsc2n1)c1cccc2ccccc12,-29%
-14%,-1.9%,·,CCN(C(=O)CN1C(=O)S/C(=C\c2ccc(F)cc2)C1=O)C1CCS(=O)(=O)C1 (centres undefined),0%
-7%,-3.0%,-5,CCc1ccc(-n2c(SCC(=O)Nc3cccc(S(=O)(=O)NC4=NCCCCC4)c3)nc3ccccc3c2=O)cc1,3%
·,-0.4%,·,C=C1CCN(c2ccc(C(=O)O)cc2[N+](=O)[O-])CC1,7%
-2%,-4.4%,·,O=C(NC1CCN(S(=O)(=O)c2ccc(F)cc2)CC1)c1ccccc1,?
?,?,·,Cc1ccc2c(c1)N(C)/C(=C/c1cccc[n+]1CCO)S2,?
?,?,·,COc1cc(CN2CCN(C(c3ccccc3)c3ccccc3)CC2)cc(OC)c1OC,21%
4%,3.3%,-7,Cc1ccc(NC(=O)C2(N(CC(C)C)C(=O)Cn3nnnc3N)CCCCC2)cc1,0%
-5%,-1.4%,·,COC(=O)c1c(C(=O)OC)c(-c2ccc(OC)cc2)n2c1CS(=O)(=O)C2,-5%
-5%,0.1%,4,CCOC(=O)C1=C(C)N(CC(C)C)C(=O)C1,10%

# Full records, looked up by structure. Order of values: miR-21 FLuc, Rango-impB inh, GLA inh pH 4.5, Rango release inh
# Shown for COC(=O)c1c(C(=O)OC)c(-c2ccc(OC)cc2)n2c1CS(=O)(=O)C2 → -5%, -1.4%, ·, -5%
# Shown for C=C1CCN(c2ccc(C(=O)O)cc2[N+](=O)[O-])CC1 → ·, -0.4%, ·, 7%

# The main list resumes; the 5 compounds before the break are reprinted first.
miR-21 FLuc,Rango-impB inh,GLA inh pH 4.5,canonical_smiles,Rango release inh
?,?,·,Cc1ccc2c(c1)N(C)/C(=C/c1cccc[n+]1CCO)S2,?
?,?,·,COc1cc(CN2CCN(C(c3ccccc3)c3ccccc3)CC2)cc(OC)c1OC,21%
4%,3.3%,-7,Cc1ccc(NC(=O)C2(N(CC(C)C)C(=O)Cn3nnnc3N)CCCCC2)cc1,0%
-5%,-1.4%,·,COC(=O)c1c(C(=O)OC)c(-c2ccc(OC)cc2)n2c1CS(=O)(=O)C2,-5%
-5%,0.1%,4,CCOC(=O)C1=C(C)N(CC(C)C)C(=O)C1,10%
3%,2.1%,7,COc1ccc(/C=N/c2oc(C)c(C)c2C#N)c(OC)c1,13%
3%,-0.9%,-5,CCN1CCN(c2cc(C)c3cc(NC(=S)N4CCN(c5ccccc5)CC4)ccc3n2)CC1,0%
-27%,?,11,CCn1c(O)c(C=Nc2ccccc2)oc1=S,-28%
-11%,-3.3%,8,CCOc1cccc(OCCCOc2ccccc2)c1,3%
·,-2.9%,·,CCc1cccc(NC(=O)COC(=O)/C=C/c2cccs2)c1,13%
-11%,0.1%,-3,O=C(O)c1cccc(Oc2ncnc3sc4c(c23)CCCC4)c1,4%
4%,1.1%,8,Nc1cccc(S(=O)(=O)c2cccc(N)c2)c1,13%
·,-1.3%,·,COCCN(C(=O)CCCc1nc2ccccc2s1)c1c(N)n(CC(C)C)c(=O)[nH]c1=O,-20%
-1%,?,-5,CC(C)(C)OC(=O)N1CC=C2C(C#N)=C(N)C(C#N)(C#N)C(c3cccs3)C2C1 (centres undefined),?
1%,1.1%,4,Cc1ccc(S(=O)(=O)N(C)C)cc1N,-8%
·,2.2%,·,COc1ccc(CCNC(=O)COC(=O)c2cc(Cl)nc(Cl)c2)cc1,-9%
·,2.2%,·,Cc1cc2c(cc1C)C(=O)C(=O)N2,-2%

# An excerpt (hit frequency here may not be typical).
